Compound activity from PubChem.
gsp ag: agonists of gsp mutant (McCune-Albright syndrome). gsp mutant cells, cAMP HTRF, 30 min; control for the full effect not named in the record. Potency, µM (top dose mostly 76.9 µM), for the others: top-dose activation (cAMP increase), most hits filed as activators. 340,000 compounds, 0.13% hits. AID 624287; active = well fitted activation curve with a large enough effect; inconclusive = small, poorly fitted or top-dose-only effect, or another doubt; inactive = no such curve, though single readings can be large or run the other way; cell line not stated here;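 note: phosphodiesterase inhibitor Ro 20-1724 added with compounds to block cAMP breakdown; potency is the fitted concentration of half-maximal effect; nearly all actives have a fitted effect of over 60% in size; about a fifth of the inactives were tested at one dose only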
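Cells stably selected in G418 were plated at 2000/well, grown 16-24 hr, then given compounds in DMSO with the PDE inhibitor […] (300 uM solution added) for 30 min at 37C; cAMP was read by HTRF.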
ClpP mod: qHTS Assay for Activators of ClpP; ATP-dependent Clp protease proteolytic subunit (Bacillus subtilis (strain 168)), P80244; purified B. subtilis ClpP, FRET peptide cleavage, 20 min; Potency, µM (highest dose often 57.5 µM), for the others: at the highest dose activity change, negative = active; 340,000 compounds, 1.9% hits; active = well fitted falling curve with a large enough effect; inconclusive = small, poorly fitted or top-dose-only effect; inactive = no such curve, though single readings can be large or run the other way; note: potency is the fitted concentration of half-maximal effect; the source files actives as falling curves though it sought activators and does not explain the sign; nearly all actives have a fitted effect of over 65% in size; many hits overshoot -100%
Target sequence (P80244 whole entry, looked up): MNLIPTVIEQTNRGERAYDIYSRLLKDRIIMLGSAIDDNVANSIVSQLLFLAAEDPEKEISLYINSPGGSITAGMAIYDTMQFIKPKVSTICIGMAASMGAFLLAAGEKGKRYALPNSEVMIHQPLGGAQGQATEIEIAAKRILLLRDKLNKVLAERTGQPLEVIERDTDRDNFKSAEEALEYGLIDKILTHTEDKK
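ClpP 10 microg/mL final, pH 8 Tris/KCl buffer with BSA, glycerol, Tween-20; compound pinned in; FRET-FV substrate; RT 20 min; Ex320/Em430; ΔFRET vs ADEP 5.8 microM, DMSO, no enzyme.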
Menin-MLL FL inh: inhibitors of human menin-MLL interaction, wild-type MLL peptide. Fluorescence polarization, fluorescein-MLL peptide displacement from menin. FP activity change, % at 61.4 µM. 290,000 tested, under 10 active. AID 1766; inconclusive = falling polarisation curve, or a change in total fluorescence; inactive = total fluorescence flat and polarisation flat or rising; no compound was filed as active; the % refers to the polarisation; negative = inhibition;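 note: % of control where 0% means no effect; inhibitors lower the polarisation; unlabelled MLL peptide was the positive control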
CtBP-E1A blk: CtBP/E1A binding inhibition; 340,000 compounds, 0.49% hits; activity change, % (test concentration not listed); AlphaScreen GST-E1A/His-CtBP binding, 1536-well; hits give low values; control for the full effect not named in the record; AID 651724; in the data active means activity change below about -65%; inconclusive means about -30% to -65%; inactive means above about -30%; note: % is set by controls: 0 for no effect and ±100 for the full control effect
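AlphaScreen with 125 nM GST-E1A and 125 nM His-CtBP (5X stocks) in Tris pH 8.0, 300 mM NaCl, BSA, Tween 20, TCEP. Compounds preincubated 2 h at 37 deg C, then glutathione donor/nickel acceptor beads added for 1 h at 37 deg C in dark.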
Sfp inh: inhibitors of Bacillus subtilis Sfp phosphopantetheinyl transferase. Q9F4F7. Biochemical Sfp PPTase activity, qHTS. Potency, µM, for inactives: max response, negative = inhibition, most hits filed as inhibitors. 310,000 compounds, 3.5% hits. AID 1490; active = well fitted inhibition curve with a large enough effect; inconclusive = small, poorly fitted or top-dose-only effect, or another doubt; inactive = no such curve, though single readings can be large or run the other way;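 note: the enzyme is Sfp with the accession as filed and its product quenches rhodamine fluorescence; potency is the fitted concentration of half-maximal effect; 0% = enzyme reaction without inhibitor and -100% = no enzyme wells; top concentration of the series not given in the record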
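After 15 min at room temperature with compound, 15 nM Sfp received 5 uM rhodamine-CoA plus 12.5 uM BHQ-2-ybbR (50 mM Hepes pH 7.6, 10 mM MgCl2). Rate came from the fluorescence difference over 30 min, ex 525/em 598 nm.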
gsp antag: antagonists of gsp mutant (McCune-Albright syndrome); 340,000 compounds, 0.4% hits; gsp-mutant cells, cAMP HTRF, 30 min; control for the full effect not named in the record; AID 624288; Potency, µM (highest dose often 76.9 µM), inactives show at the top dose activity change, negative = inhibition, most hits filed as inhibitors; active = falling curve of any shape with a large fitted effect; inconclusive = falling curve, mostly with a smaller effect; inactive = flat or rising curve; cell line not stated here;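 note: intracellular cAMP measured with PDE inhibitor Ro 20-1724 present during compound exposure; potency is the fitted concentration of half-maximal effect; % is set by controls: 0 for no effect and ±100 for the full control effect; nearly all actives have a fitted effect of over 65% in size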
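Cells in G418 medium, seeded 16-24 h, 37C; buffer exchange to DPBS + 1 mM CaCl2, 0.5 mM MgCl2, 0.05% BSA; cpds in DMSO + […] (300 uM stock), 30 min 37C; HTRF cAMP detection.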
TRPV1 potentiator: enhances activation of the human vanilloid receptor TRPV1 | Q8NER1 | TRPV1-expressing cells, Fluo-8 calcium influx, capsaicin EC20 potentiation; host cell line not named in the record; control for the full effect not named in the record | potentiation, % at 8.33 µM | 320,000 compounds, 0.02% hits | AID 540277; active means potentiation above 80%; inconclusive means 30% to 80%; inactive means below 30%; note: 0% is about no effect
Target sequence (Q8NER1 whole entry, looked up): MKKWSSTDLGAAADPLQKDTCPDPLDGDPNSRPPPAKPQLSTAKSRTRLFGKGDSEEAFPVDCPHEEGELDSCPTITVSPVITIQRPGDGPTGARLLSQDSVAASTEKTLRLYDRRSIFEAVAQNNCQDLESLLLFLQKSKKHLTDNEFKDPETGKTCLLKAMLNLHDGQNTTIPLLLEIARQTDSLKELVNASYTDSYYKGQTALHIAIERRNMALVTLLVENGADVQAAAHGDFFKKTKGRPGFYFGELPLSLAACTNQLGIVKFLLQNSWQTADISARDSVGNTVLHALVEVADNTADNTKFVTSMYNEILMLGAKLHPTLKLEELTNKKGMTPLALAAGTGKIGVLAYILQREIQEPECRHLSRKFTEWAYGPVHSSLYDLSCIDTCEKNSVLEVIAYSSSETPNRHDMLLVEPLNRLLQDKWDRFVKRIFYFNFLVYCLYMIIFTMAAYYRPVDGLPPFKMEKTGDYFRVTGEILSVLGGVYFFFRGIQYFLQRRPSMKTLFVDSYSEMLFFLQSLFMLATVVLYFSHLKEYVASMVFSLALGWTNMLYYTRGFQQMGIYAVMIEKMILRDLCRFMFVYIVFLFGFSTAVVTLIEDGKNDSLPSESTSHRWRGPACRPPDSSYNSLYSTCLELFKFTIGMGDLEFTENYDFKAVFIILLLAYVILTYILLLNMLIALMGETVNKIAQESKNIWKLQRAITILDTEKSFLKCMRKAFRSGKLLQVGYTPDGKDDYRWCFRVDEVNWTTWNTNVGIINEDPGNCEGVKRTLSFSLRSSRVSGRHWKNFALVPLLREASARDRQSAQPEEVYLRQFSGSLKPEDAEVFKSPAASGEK
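Cells expressing TRPV1 were dye-loaded with Fluo-8 and read kinetically: 10 s baseline, 3 min after compound (agonist portion), then 2 min after EC20 capsaicin (allosteric enhancer portion). Calcium-bound dye fluorescence at 480/520 nm.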
An asterisk follows results filed as active; ? = inconclusive; nt = not tested or not shown; [ ] = another dose, or the depositor's remark.

Start of the data: the first 2 entries as a preview:
SMILES | gsp ag | ClpP mod | Menin-MLL FL inh | CtBP-E1A blk | Sfp inh | gsp antag | TRPV1 potentiator
O=[N+]([O-])c1cccc(/C=C2\CCC(/C=N/Nc3ccc4ccccc4n3)=C2N2CCOCC2)c1 | ? | -5.0% | -0.6 | -10 | 24% | -9% | 0
CCCc1nc(Cl)c(C#N)c2c1CCCC2 | -1%[15.4 µM] | nt | -3.1 | 2 | 1% | -6% | 4

All compounds of this part, from the first entry:
SMILES | gsp ag | ClpP mod | Menin-MLL FL inh | CtBP-E1A blk | Sfp inh | gsp antag | TRPV1 potentiator
O=[N+]([O-])c1cccc(/C=C2\CCC(/C=N/Nc3ccc4ccccc4n3)=C2N2CCOCC2)c1 | ? | -5.0% | -0.6 | -10 | 24% | -9% | 0
CCCc1nc(Cl)c(C#N)c2c1CCCC2 | -1%[15.4 µM] | nt | -3.1 | 2 | 1% | -6% | 4
O=C(Nc1ccccc1N1CCCCC1)c1ccccc1F | -33%[inhibitor] | -2.6% | 2.2 | 25 | ? | 10% | 9
Cc1ccc(-c2cc(C(F)(F)F)n3ncc(C(=O)N4CCCc5ccccc54)c3n2)cc1 | -26% | 0.8% | 0.9 | 9 | 8% | -5% | -5
CC(C)N(CCO)C(=O)CCc1nnc(Cc2cccc(C(F)(F)F)c2)o1 | 12% | nt | -1.7 | -1 | 15% | 8% | 5
C/C(=N\NC(=O)C1CCCN(S(=O)(=O)c2ccccc2)C1)c1cccnc1 (stereo not given) | -3% | -0.3% | -1.5 | 2 | 21% | -5% | 4
CCOc1ccc(S(=O)(=O)N2CCN(C(=O)c3cccn3C)CC2)cc1 | -9%[15.4 µM] | 5.8% | 5.0 | -1 | 0% | 5% | 14
COc1ccc(OC)c(-n2nnnc2SCC(=O)NCCc2ccccc2)c1 | 13% | 0.5% | 0.5 | 4 | -7% | -17% | 0
CCc1ccccc1NC(=O)COc1ccc(C(=S)N2CCCC2)cc1 | 10%[15.4 µM] | nt | 4.5 | -6 | ? | -26% | 1
Cc1nc(-c2coc3c(CN(C)C)c(O)ccc3c2=O)cs1 | 16% | 32µM* | 1.7 | 7 | 8% | -7% | 12
CCc1nnc(NS(=O)(=O)c2ccc(N/C=C\C(=O)c3cccc(OC)c3)cc2)s1 | 8%[15.4 µM] | nt | 1.4 | -15 | 16% | nt | 2
Cc1cc(C)n(CC(=O)N2c3ccccc3Sc3ccccc32)n1 | -17% | 0.7% | -5.2 | -4 | -15% | 3% | 5
COc1ccc(NC(=O)COC(=O)Cc2c[nH]c3ccccc23)cc1OC | -3%[15.4 µM] | -1.5% | -1.3 | -2 | 5% | 14% | -9
O=c1/c(=C/c2ccc(CNS(=O)(=O)c3ccccc3)o2)sc2n1CCN=2 | ? | 0.6% | ? | 10 | 50µM* | 0% | 3
CN(C)C(=O)N1CCN(C(=O)c2ccccc2Sc2ccccc2C#N)CC1 | -5% | -1.6% | 2.9 | 7 | -1% | -7% | nt
COC(=O)CCCCC(=O)C1C(=O)CC(C)(C)C(C(=O)OC)C1=O (stereo not given) | 10% | 0.8% | -1.8 | 3 | 9% | 6% | -2
CCOc1cc(/C=N/NC(N)=O)cc(Br)c1OCC(=O)Nc1ccccc1C | -4% | 3.3% | 0.7 | -7 | 2% | -7% | 0
CCC(=O)Nc1cccc(NC(=S)NC(=O)c2ccc(Cl)cc2Cl)c1 | -60%[inhibitor] | -0.4% | 3.9 | 6 | 14% | -14% | 4
CCCCC1(C)OC(=O)C(=Cc2ccc(N(C)C)cc2)C(=O)O1 (stereo not given) | 0% | 0.9% | 23 | -2 | 16% | -2% | 0
Cn1cnnc1SCCNS(=O)(=O)c1cccc([N+](=O)[O-])c1 | 0% | -1.0% | -4.5 | -7 | 12% | 15% | 2
COc1ccc(C2c3[nH]c4ccccc4c3C[C@H]3C(=O)N(C)CC(=O)N23)cc1OC (stereo not given in full) | ? | 0.3% | 2.3 | 19 | 3% | -17% | 7
COCCn1c(C)cc(C(=O)COC(=O)c2ccc(S(=O)(=O)N(C)C)cc2)c1C | ? | nt | nt | 4 | nt | 10% | nt
O=C(NC1CCN(Cc2ccccc2)CC1)c1ccc(CS(=O)c2ccccc2Cl)o1 (stereo not given) | 5% | 1.1% | nt | 2 | nt | nt | nt
C/[N+]([O-])=C\c1cccc(OCCN2CCN(c3ncc(C(F)(F)F)cc3Cl)CC2)c1 | ? | nt | -1.4 | -9 | ? | 5% | -7

Single records, from the list above:
Entry for C/[N+]([O-])=C\c1cccc(OCCN2CCN(c3ncc(C(F)(F)F)cc3Cl)CC2)c1 = gsp ag: ?; ClpP mod: nt; Menin-MLL FL inh: -1.4; CtBP-E1A blk: -9; Sfp inh: ?; gsp antag: 5%; TRPV1 potentiator: -7
Entry for COC(=O)CCCCC(=O)C1C(=O)CC(C)(C)C(C(=O)OC)C1=O (stereo not given) = gsp ag: 10%; ClpP mod: 0.8%; Menin-MLL FL inh: -1.8; CtBP-E1A blk: 3; Sfp inh: 9%; gsp antag: 6%; TRPV1 potentiator: -2
Entry for CCCCC1(C)OC(=O)C(=Cc2ccc(N(C)C)cc2)C(=O)O1 (stereo not given) = gsp ag: 0%; ClpP mod: 0.9%; Menin-MLL FL inh: 23; CtBP-E1A blk: -2; Sfp inh: 16%; gsp antag: -2%; TRPV1 potentiator: 0

Further records:
SMILES | gsp ag | ClpP mod | Menin-MLL FL inh | CtBP-E1A blk | Sfp inh | gsp antag | TRPV1 potentiator
CCCCc1nc2sc3c(SCCN(C)C)ncnc3c2c2c1CCC2 | 11%[15.4 µM] | nt | 3.3 | -1 | ? | 1% | -1
CCCn1nc(-c2nnc(-c3ccc(C)c(C)c3)o2)c2ccccc2c1=O | -5% | -2.2% | -4.2 | 5 | 16% | 7% | -2
CCOc1ccc(NC(=O)NC2CCCCCCC2)cc1 | -12% | -2.1% | nt | 1 | 11% | 4% | -5
O=C(Cc1ccc(Cl)cc1)Nc1ccccc1N1CCN(C(=O)c2ccccc2)CC1 | -2% | -0.2% | nt | 0 | 0% | 28µM* | -8
COc1cc2cc(C(c3nnnn3Cc3ccc(F)cc3)N3CCCCCC3)c(=O)[nH]c2cc1OC (stereo not given) | -32%[inhibitor] | -15% | 15 | 1 | -10% | -7% | 6
CC(C)CN(C(=O)CCNC(=O)c1ccc(Cl)cc1)c1c(N)n(CC(C)C)c(=O)[nH]c1=O | -2% | -0.9% | nt | 1 | nt | 18% | -3
COc1ccc(NC(=O)CSc2nccn2Cc2ccccc2)cc1 | -21% | 1.9% | nt | 7 | 14% | 0% | 7
COc1cccc(CC(=O)OCC(=O)Nc2c(C)nn(-c3ccccc3)c2C)c1 | -1%[15.4 µM] | nt | nt | 5 | nt | 1% | -16
O=C(NCC(=O)N1CCC2(CC1)NCCc1[nH]cnc12)c1ccc(Br)cc1 | 0% | -1.2% | 0.1 | 1 | 10% | 12% | 11
S=C(Nc1ccccc1Cl)NC1CCC(NC(=S)Nc2ccccc2Cl)CC1 (stereo not given) | 5%[15.4 µM] | ? | -0.3 | 0 | 6% | -12% | 5
CCOC(=O)Cn1c2ccc(OC)cc2c2nc3ccccc3nc21 | 6% | 0.8% | ? | -2 | -17% | 2% | 5
COCCSc1ccccc1C(=O)Nc1ccc([N+](=O)[O-])cc1OC | -12% | 0.4% | -4.4 | -2 | 16% | ? | -10
COc1cccc(OC)c1C(=O)OCC(=O)N1CC(C)CC(C)C1 (stereo not given) | -4% | -5.9% | nt | 10 | nt | -1% | 2
OCCC#Cc1ccc(CN2CCN(Cc3ccsc3)C(CCO)C2)cc1 (stereo not given) | 7%[15.4 µM] | nt | -2.5 | -2 | -3% | 14% | -16
CC(C)(C)N1C(=O)c2ccc(C(=O)Nc3ccc(C(=O)O)cc3)cc2C1=O | -5% | -2.9% | -0.2 | -9 | 10% | -1% | -6
CC(=O)Nc1ccc(NC(=O)Nc2ccc(C)cc2C)cc1 | 18% | 1.3% | 0.8 | 1 | 2% | 11% | 2
Fc1ccc(N2CCN(/C=C/c3nnnn3-c3ccccc3)CC2)cc1 | -18% | -1.1% | 0.2 | -7 | -12% | -10% | 17
CCCC(=O)Nc1cccc(NC(=O)c2ccc(C)c([N+](=O)[O-])c2)c1 | 16% | 1.1% | -6.8 | -2 | 1% | -13% | -2
O=C(Nc1c[nH]c(=O)[nH]c1=O)c1ccccc1Cl | 26%[15.4 µM] | 0.1% | -2.2 | 9 | 8% | 5% | 2
O=[N+]([O-])c1cc(-c2ncccn2)cs1 | -30% | nt | -3.0 | -20 | 13% | 1% | 2
CCCC(=N)C1=C(O)CC(CC(C)SCC)CC1=O (stereo not given) | -4% | -1.8% | 1.1 | 2 | 21% | 1% | -28
C[C@@H]1CN([C@H](C)CO)C(=O)CCCn2nncc2CO[C@@H]1CN(C)C(=O)c1ccccc1 | -118%[inhibitor] | -2.5% | nt | -1 | nt | nt | nt
CCOC(=O)C1=C(C)NC(C)=C(C(=O)OCC)C1C(=O)OCC(=O)NCc1ccc(F)cc1 | -49%[inhibitor] | -19% | nt | 9 | nt | 2% | nt
O=C(Nc1ccccc1C(F)(F)F)c1ncn[nH]1 | -2% | nt | 0.9 | -88* | ? | 10% | -6
Cc1ccccc1-c1cc2nc(C)c(C)c(=O)n2[nH]1 | 1%[15.4 µM] | 29% | 1.9 | -2 | -2% | 3% | -6
O=C(COC(=O)c1ccc(N2CCCC2=O)cc1)Nc1ccccc1 | -3% | -4.4% | nt | -24 | nt | 12% | -4
COc1ccccc1-c1cc(C(=O)Nc2cccnc2)no1 | -3% | -4.1% | -0.5 | -1 | 9% | 23% | -11
CCOc1cccc(CNCCSc2nnnn2C)c1 | 8%[15.4 µM] | 0.5% | 3.2 | 0 | -35% | -3% | 13
CNC(=O)c1ccc(-n2nc(C)cc2-c2ccccc2)cc1 | -44%[inhibitor] | 0.1% | 3.7 | 7 | -2% | -14% | nt
COC(=O)c1cnn2c(C)c(Cc3cccc(F)c3)c(C)nc12 | 22% | 5.5% | 4.7 | 8 | 21% | 5% | 12
